# ID4 SMM = binders of human ID4 protein, primary screen, biochemical, small molecule microarray, single point. AID 624137, 2012. 1.2% of 31,000 active. DNA-binding protein inhibitor ID-4 (Homo sapiens), P47928. Flag-ID4 binding, fluorescence F/B. calls only;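 active = spot signal over background at p below 0.07 in all four prints; compounds were printed on slides so no solution concentration is given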;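 note: a binder raises fluorescence above local background on the spot; about 2 pmol printed per array spot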
# Target sequence (P47928 whole entry, looked up): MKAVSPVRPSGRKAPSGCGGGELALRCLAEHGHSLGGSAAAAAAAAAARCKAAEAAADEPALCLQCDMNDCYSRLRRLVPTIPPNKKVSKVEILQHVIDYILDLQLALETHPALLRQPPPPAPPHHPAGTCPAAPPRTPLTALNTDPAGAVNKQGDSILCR
# Calls only; i = inactive; + = active, no number. An excerpt; count on the stated rates, not on these rows.
SMILES,ID4 SMM
CC(C)C#Cc1cnc2c(c1)C(=O)N([C@@H](C)CO)C[C@@H](C)[C@H](CN(C)C(=O)C1CCC1)O2,i
Cc1c(C(=O)OC(C)C)sc2ncn(CC(=O)Nc3ccccc3C(F)(F)F)c(=O)c12,i
CCNC(=O)C[C@H]1C=C[C@H](NC(=O)C2CC2)[C@H](CO)O1,i
C[C@H](CO)N1C[C@H](C)[C@H](CN(C)C)Oc2cc(-c3ccccc3)ccc2S1(=O)=O,i
O=C(N[C@H]1CC[C@H](CC(=O)N2CCCCC2)O[C@H]1CO)c1cccc(F)c1,i
CN(C)C(=O)C[C@H]1C=C[C@@H](NC(=O)c2ccc(F)cc2)[C@H](CO)O1,i
O=C(CCc1nc(-c2ccc(Cl)cc2)no1)NCC1CCCO1 (stereo not given),i
COc1ccc(NC(=O)N(C)C[C@@H]2Oc3cc(-c4cccc(C(=O)N(C)C)c4)ccc3S(=O)(=O)N([C@@H](C)CO)C[C@H]2C)cc1,i
O=C(NC1CCCCC1)N[C@H]1CC[C@H](CC(=O)N2CCOCC2)O[C@H]1CO,i
CCCc1cn(CC[C@@H]2CC[C@@H](NC(=O)C3CC3)[C@@H](CO)O2)nn1,i
O=C(C[C@H]1C=C[C@@H](NC(=O)C2CCC2)[C@H](CO)O1)NC1CCC1,i
O=C(/C=C/c1ccc(O)cc1)OC[C@H]1O[C@@H](Oc2cc(O)c3c(c2)OC(c2ccc(O)cc2)CC3=O)[C@H](O)[C@@H](OC(=O)/C=C/c2ccc(O)cc2)[C@@H]1O (stereo not given in full),i
Cc1nn(C(N)=S)c2c1CC(COCCC(C)C)O2 (stereo not given),i
Cc1ccc(NC(=O)COc2ccc3ccccc3c2Br)c([N+](=O)[O-])c1,i
CCCC(=O)N(Cc1cc2cccc(C)c2[nH]c1=O)c1ccc(C)cc1,i
CCC(=O)N(C)C[C@H]1Oc2ncc(Br)cc2C(=O)N([C@@H](C)CO)C[C@@H]1C,i
O=C(C[C@H]1C=C[C@@H](NC(=O)CC2CC2)[C@H](CO)O1)NCC(F)(F)F,i
COc1ccc(-c2nnc(SCC(=O)Nc3cccc(SC)c3)o2)cc1,i
CCN(CC(=O)O)S(=O)(=O)c1ccc2ccccc2c1,i
CCOC(=O)CSc1nc2ccc(I)cc2c(=O)n1-c1ccccc1OC,i
CCCC#Cc1cnc2c(c1)C(=O)N([C@H](C)CO)C[C@H](C)[C@@H](CN(C)CCC)O2,i
O=C(c1cn(-c2ccccc2)nc1-c1cc2ccccc2oc1=O)n1nnc2ccccc21,i
O=C(C[C@@H]1CC[C@H](NC(=O)CC2CC2)[C@@H](CO)O1)NCc1ccc(Cl)cc1,i
CCN(CC(=O)Nc1cccc([N+](=O)[O-])c1)S(=O)(=O)c1ccc(C)cc1,i
Cc1cc2c(=O)n(Cc3ccco3)c(SCC(=O)c3cc4ccccc4o3)nc2s1,i
CCOC(=O)c1cc(NC(=O)CSc2nnc(C)s2)ccc1Cl,i
Cc1nc(SCC(C)C)c(C#N)c(C)c1C,i
O=C1NCN(c2ccccc2)C12CCN(CCCC(c1ccc(F)cc1)c1ccc(F)cc1)CC2,i
CC(=O)N(C)C[C@H]1Oc2ncc(C#CC(C)(C)O)cc2C(=O)N([C@H](C)CO)C[C@H]1C,i
O=[N+]([O-])c1ccc(N2CCN(S(=O)(=O)c3cccs3)CC2)cc1NCc1ccco1,i
O=C(C[C@H]1C=C[C@@H](NC(=O)Nc2ccccc2F)[C@@H](CO)O1)NCc1ccc(F)cc1,i
O=C(COc1ccc(S(=O)(=O)NC2CCCCC2)cc1Cl)N1CCOCC1,i
COc1ccc(S(=O)(=O)N(CC(=O)N2CCOCC2)C2CCCCC2)cc1OC,i
O=C(C[C@@H]1CC[C@@H](NC(=O)c2cccnc2)[C@H](CO)O1)NCc1ccc(Cl)c(Cl)c1,i
COc1ccc(N(CC(=O)Nc2ccccc2-c2ccccc2)S(C)(=O)=O)cc1,i
Cc1cc(Cl)ccc1NC(=O)CSc1nc(C(F)(F)F)cc(=O)[nH]1,i

# For convenience, some entries already given:
SMILES,ID4 SMM
O=C(C[C@@H]1CC[C@H](NC(=O)CC2CC2)[C@@H](CO)O1)NCc1ccc(Cl)cc1,i
CCN(CC(=O)Nc1cccc([N+](=O)[O-])c1)S(=O)(=O)c1ccc(C)cc1,i
Cc1cc2c(=O)n(Cc3ccco3)c(SCC(=O)c3cc4ccccc4o3)nc2s1,i
CCOC(=O)c1cc(NC(=O)CSc2nnc(C)s2)ccc1Cl,i
Cc1nc(SCC(C)C)c(C#N)c(C)c1C,i
O=C1NCN(c2ccccc2)C12CCN(CCCC(c1ccc(F)cc1)c1ccc(F)cc1)CC2,i
CC(=O)N(C)C[C@H]1Oc2ncc(C#CC(C)(C)O)cc2C(=O)N([C@H](C)CO)C[C@H]1C,i
O=[N+]([O-])c1ccc(N2CCN(S(=O)(=O)c3cccs3)CC2)cc1NCc1ccco1,i
O=C(C[C@H]1C=C[C@@H](NC(=O)Nc2ccccc2F)[C@@H](CO)O1)NCc1ccc(F)cc1,i
O=C(COc1ccc(S(=O)(=O)NC2CCCCC2)cc1Cl)N1CCOCC1,i
COc1ccc(S(=O)(=O)N(CC(=O)N2CCOCC2)C2CCCCC2)cc1OC,i
O=C(C[C@@H]1CC[C@@H](NC(=O)c2cccnc2)[C@H](CO)O1)NCc1ccc(Cl)c(Cl)c1,i
COc1ccc(N(CC(=O)Nc2ccccc2-c2ccccc2)S(C)(=O)=O)cc1,i
Cc1cc(Cl)ccc1NC(=O)CSc1nc(C(F)(F)F)cc(=O)[nH]1,i

# Continued.
SMILES,ID4 SMM
C=CCOC(=O)[C@@H]1[C@H]2C(=O)O[C@H](c3ccccc3)[C@H](c3ccccc3)N2[C@H](c2ccc(OCCOC(=O)[C@@H]3C[C@@H]4C(=O)N[C@@H](Cc5ccccc5)C(=O)N4[C@@H]3c3ccc(O)cc3)cc2)[C@@]12C(=O)Nc1ccc(I)cc12,i
CO[C@@H]1CN(C)C(=O)c2ccc(NC(=O)C3CCCC3)cc2OC[C@@H](C)NC[C@H]1C,i
Cc1cc(OCC(=O)Nc2ccc(O)c(-c3nc4ccccc4s3)c2)ccc1Cl,i
c1cnc(SCCCCOc2ccc3c(c2)CCC3)nc1,i
O=C(C[C@H]1CC[C@H](NC(=O)c2cccnc2)[C@H](CO)O1)NCc1ccc(Cl)c(Cl)c1,i
COc1ccccc1-c1cnc2c(c1)C(=O)N([C@H](C)CO)C[C@@H](C)[C@@H](CN(C)Cc1ccncc1)O2,i
COc1ccc([N+](=O)[O-])cc1N(CC(=O)Nc1cc(Cl)ccc1Cl)S(C)(=O)=O,i
CCc1cccc(C)c1NC(=O)CSc1n[nH]c(-c2ccccc2Cl)n1,i
O=C(C[C@H]1C=C[C@H](NC(=O)CCN2CCCCC2)[C@H](CO)O1)Nc1ccc(-c2ccccc2)cc1,i
COc1ccc(-n2c(SCC(N)=O)nnc2-c2cccnc2)cc1,i
COc1ccc(-c2cnc3c(c2)C(=O)N([C@@H](C)CO)C[C@H](C)[C@@H](CN(C)C(=O)NC2CCCC2)O3)cc1,i
CC(=O)c1cccc(NC(=O)CCN2C(=O)c3ccccc3C2=O)c1,i
N#C[C@H]1[C@@H](c2ccccc2)[C@@H](CO)N1S(=O)(=O)c1cccc(F)c1,i
Cc1ccccc1C(=O)Nc1ccc2nc(SCC(=O)Nc3ccc([N+](=O)[O-])cc3)sc2c1,i
C[C@@H]1CN([C@H](C)CO)C(=O)c2cc(C3=CCCCC3)cnc2O[C@@H]1CN(C)Cc1cccnc1,i
O=C(C[C@H]1CC[C@@H](NC(=O)c2ccc(F)cc2)[C@@H](CO)O1)NCCc1ccccc1,i
O=[N+]([O-])c1cccc2cn[nH]c12,i
C[C@H](CO)N1C[C@H](C)[C@@H](CN(C)Cc2cncnc2)Oc2cc(/C=C/c3ccccc3)ccc2S1(=O)=O,i
CN(C)CCCNC(=O)C[C@H]1CC[C@H](NC(=O)Cc2cccnc2)[C@H](CO)O1,i
CC(C)NC(=O)N(C)C[C@H]1Oc2ccc(N(C)C)cc2C(=O)N([C@H](C)CO)C[C@H]1C,i
C[C@H](CO)N1C[C@H](C)[C@H](CN(C)Cc2ccncc2)Oc2ncc(C#CC3CC3)cc2C1=O,i
NC(=O)c1c(NC(=O)C2CC(=O)N(c3ccc(Cl)cc3)C2)sc2c1CCCC2 (stereo not given),i
CC(C)NC(=O)N(C)C[C@H]1OCc2ccccc2-c2ccccc2C(=O)N([C@H](C)CO)C[C@H]1C,i
O=C(C[C@@H]1CC[C@H](NC(=O)C2CC2)[C@H](CO)O1)NCC1CC1,i
C[C@H](CO)N1C[C@H](C)[C@@H](CN(C)Cc2cccc(F)c2)Oc2ncc(-c3cccc(F)c3)cc2C1=O,i
C[C@H](CO)N1C[C@H](C)[C@@H](CN(C)Cc2ccccc2)Oc2ncc(C#Cc3ccccn3)cc2C1=O,i
Cc1noc(C)c1NC(=O)N(C)C[C@@H]1Oc2cc(C#CCC3CCCC3)ccc2S(=O)(=O)N([C@H](C)CO)C[C@@H]1C,i
COc1ccc(Cl)cc1NC(=O)C(C)NS(=O)(=O)c1ccc(Br)cc1 (stereo not given),i
C[C@@H]1CN([C@H](C)CO)C(=O)Cc2cc(NC(=O)C3CCCCC3)ccc2O[C@@H]1CN(C)CC1CC1,i
CC(=O)N[C@H]1CC[C@@H](CC(=O)NCc2ccc(Cl)cc2)O[C@H]1CO,i
COC(=O)Cc1c(C)nc2nc(NCc3ccccc3)[nH]n2c1=O,i
N#C[C@H]1[C@@H](c2ccc(C3=CCCCC3)cc2)[C@@H](CO)N1C(=O)Cc1ccncc1,i
C[C@H](CO)N1C[C@H](C)[C@@H](CN(C)CC2CC2)Oc2ccc(NC(=O)CCC(F)(F)F)cc2CC1=O,i
COc1ccccc1-c1cnc2c(c1)C(=O)N([C@H](C)CO)C[C@H](C)[C@@H](CN(C)CC1CCOCC1)O2,i
COC(=O)c1c(NC(=O)c2ccc(NS(C)(=O)=O)cc2)sc2c1CCCC2,i
Cc1cc(C(C)(C)C)cc(C)c1CC1=NCCN1,i
COc1ccccc1N(CC(=O)Nc1cccc([N+](=O)[O-])c1C)S(C)(=O)=O,i
CN(C)c1ccc2c(c1)[C@H]1C[C@H](CC(=O)NCc3ccccn3)O[C@H](CO)[C@H]1O2,i
COc1ccccc1CNC(=O)c1cc(-c2ccccn2)nc2c(Cl)cccc12,i
O=C(COc1ccc(Br)cc1Cl)NCc1cccnc1,i
CCN1CSC(=S)N(CC)C1,i
COc1ccc(S(=O)(=O)N(C)CC(=O)Nc2cccc(Cl)c2C)cc1C,i
O=C(C[C@H]1CC[C@@H](NS(=O)(=O)c2ccc(F)cc2)[C@H](CO)O1)NCc1ccc(Cl)c(Cl)c1,i
CCn1c(SCC(=O)Nc2ccccc2F)nnc1-c1ccccc1F,i
CCOC(=O)Nc1ccc2c(c1)N(C(=O)CCN1CCOCC1)c1ccccc1CC2,i
Cc1ccc(-c2nc3cnccn3c2NC2CCCCC2)o1,i
Cc1ccc2c(c1)CCCN2S(=O)(=O)c1cc(OCC(N)=O)c(C)cc1Cl,i
Cc1cccc(NC(=O)CSc2nc(-c3cccs3)cc(C(F)(F)F)c2C#N)c1,i
N#CCCSc1nnc(-c2cccnc2)n1Cc1ccccc1,i
Cc1c(Cl)cccc1NC(=S)N1CCCN(c2nc3ccc(Cl)cc3s2)CC1,i
C[C@H](CO)N1C[C@H](C)[C@H](CN(C)Cc2ccccn2)Oc2cc(-c3cccc(C#N)c3)ccc2S1(=O)=O,i
CCc1ccc(OCC(=O)Nc2ccccc2C#N)cc1,i
O=C(COc1ccccc1)Nc1ccc2oc(-c3ccc(Cl)cc3)nc2c1,i
C[C@@H]1CN([C@@H](C)CO)C(=O)c2cc(-c3cccc(F)c3)cnc2O[C@H]1CN(C)CC1CCOCC1,i
Cc1cc(C)nc(SCC(=O)Nc2cccc(C(=O)O)c2)n1,+
C[C@H](CO)N1C[C@H](C)[C@@H](CN(C)S(=O)(=O)c2cn(C)cn2)Oc2ncc(C#CCN(C)C)cc2C1=O,i
COc1cccc(C(=O)NC(c2ccc(C)cc2)c2cc(Cl)c3cccnc3c2O)c1 (stereo not given),i
C[C@H](CO)N1C[C@H](C)[C@H](CN(C)C(=O)c2ccc(F)cc2)Oc2ncc(Br)cc2C1=O,i
C[C@H]1CN([C@@H](C)CO)C(=O)c2cc(C#Cc3cccnc3)cnc2O[C@@H]1CN(C)S(C)(=O)=O,i
O=C(CSc1nc2ccccc2o1)c1ccc2c(c1)OCCO2,i

# Carrying on:
SMILES,ID4 SMM
Cc1nnc(SCC(=O)Nc2cccc3ccccc23)s1,i
Cc1ccc(NC(=O)CSc2nnnn2-c2ccc(F)cc2)cc1C,i
Cc1ccc(NC(=O)CSc2nnnn2-c2cccc(C(=O)O)c2)cc1C,+
O=C(CN1C(=O)c2cccc3cccc1c23)Nc1ccccc1C(=O)N1CCOCC1,i
O=C(CSc1nnc(-c2ccccc2)c(-c2ccccc2)n1)Nc1ccccc1,i
CNC[C@H]1Oc2ncc(-c3ccccc3C)cc2C(=O)N([C@H](C)CO)C[C@H]1C,i
CC(C)CC#Cc1ccc2c(c1)O[C@@H](CN(C)Cc1ccc3c(c1)OCO3)[C@H](C)CN([C@@H](C)CO)S2(=O)=O,i
C[C@H]1CN([C@@H](C)CO)C(=O)c2cc(-c3ccncc3)cnc2O[C@@H]1CN(C)Cc1ccc(F)cc1,i
CSCCC(NC=O)C(=O)NC(Cc1ccccc1)C(=O)O (stereo not given),i
COc1ccc(Br)cc1C(Nc1ccccn1)c1cc(Cl)c2cccnc2c1O (stereo not given),i
C[C@H](CO)N1C[C@H](C)[C@@H](CN(C)C(=O)c2ccccc2)Oc2ncc(/C=C/c3ccccc3)cc2C1=O,i
COc1ccc(C#Cc2ccc3c(c2)O[C@@H](CN(C)C(=O)CN2CCOCC2)[C@H](C)CN([C@@H](C)CO)S3(=O)=O)cc1,i
C[C@H](CO)N1C[C@H](C)[C@H](CN(C)C(=O)N[C@H](C)c2ccccc2)OCc2ccccc2-c2ccccc2C1=O,i
COc1cc2c(cc1NC(=O)C(C)Oc1ccccc1C)oc1ccccc12 (stereo not given),i
CCN(CC(=O)Nc1cccc(F)c1)S(=O)(=O)c1ccc(Cl)cc1,i
